High-throughput results deposited in PubChem BioAssay by National Center for Advancing Translational Sciences (NCATS).
hNpr1 antagonist – Natriuretic polypeptide receptor (hNpr1) antagonism - Primary qHTS. Atrial natriuretic peptide receptor 1 (Homo sapiens), P16066. HEK293 hNpr1 GloSensor cGMP, ANP-stimulated luminescence. hit rate 1.6% among 76,000. Potency, µM (doses to about 46.3 µM), for inactives: at the highest dose activity change, negative = inhibition, hits mostly inhibitors; active = well fitted inhibition curve with a large enough effect; inconclusive = small, poorly fitted or top-dose-only effect; inactive = no such curve, though single readings can be large or run the other way;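 further: nearly all actives have a fitted effect of over 60% in size; nearly all hits also lower the signal before the agonist is added; a reference antagonist and vehicle were the controls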
Target sequence (P16066 whole entry, looked up): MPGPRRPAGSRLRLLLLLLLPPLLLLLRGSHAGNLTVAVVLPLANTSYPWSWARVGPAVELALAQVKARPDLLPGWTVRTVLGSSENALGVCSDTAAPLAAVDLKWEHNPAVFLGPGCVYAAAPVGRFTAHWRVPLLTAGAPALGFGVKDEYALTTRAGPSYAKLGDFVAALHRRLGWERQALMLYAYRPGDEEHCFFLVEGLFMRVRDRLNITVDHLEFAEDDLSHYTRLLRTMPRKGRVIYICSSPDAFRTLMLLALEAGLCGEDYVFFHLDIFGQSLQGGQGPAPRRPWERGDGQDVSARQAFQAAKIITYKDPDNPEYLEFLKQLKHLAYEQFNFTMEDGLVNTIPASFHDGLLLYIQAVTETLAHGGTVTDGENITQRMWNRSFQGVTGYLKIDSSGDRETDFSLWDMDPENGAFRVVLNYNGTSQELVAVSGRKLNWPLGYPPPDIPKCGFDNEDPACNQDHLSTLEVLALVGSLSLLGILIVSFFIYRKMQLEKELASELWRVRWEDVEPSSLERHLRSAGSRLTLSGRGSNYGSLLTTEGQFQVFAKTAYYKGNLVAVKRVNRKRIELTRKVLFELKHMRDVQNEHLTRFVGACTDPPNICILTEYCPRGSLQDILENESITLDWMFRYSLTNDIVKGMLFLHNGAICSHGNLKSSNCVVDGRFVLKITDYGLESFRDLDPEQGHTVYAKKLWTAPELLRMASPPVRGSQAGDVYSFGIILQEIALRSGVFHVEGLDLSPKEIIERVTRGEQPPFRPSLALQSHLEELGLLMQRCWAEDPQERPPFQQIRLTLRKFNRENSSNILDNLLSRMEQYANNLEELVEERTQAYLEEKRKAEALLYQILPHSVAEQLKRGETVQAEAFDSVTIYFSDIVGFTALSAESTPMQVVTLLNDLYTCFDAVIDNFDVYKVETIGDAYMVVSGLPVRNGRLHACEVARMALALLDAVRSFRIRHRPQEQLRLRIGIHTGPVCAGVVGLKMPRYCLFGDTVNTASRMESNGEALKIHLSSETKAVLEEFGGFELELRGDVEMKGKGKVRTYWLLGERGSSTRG
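HEK293 cells stably expressing human Npr1 and cGMP GloSensor pGS-40F, loaded 2 h with 2% GloSensor reagent, given compound 30 min at room temperature. Luminescence read before and 20 min after 0.1 nM hNppA.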
An asterisk follows results filed as active; ? = inconclusive; & = joins results of further samples; [ ] = dose if it differs, or a comment. On the % scale 0 is the no-effect control and ±100 the full control effect; potency means the concentration at half of the fitted maximal effect.

SMILES	hNpr1 antagonist
Cc1ccc(S(=O)(=O)NC[C@H]2O[C@@H](CC(=O)NCc3ccc(F)cc3)[C@H](O)[C@@H]2O)cc1	4.0%
COC(=O)C(=O)N1CC[C@H]2NC(=O)N(c3cccc(OC)c3)C(=O)[C@H]21	0.1%[70.6 µM]
Cc1nn(-c2ccc(F)cc2)c(C)c1CN1CCCn2nc(CO)cc2C1	-2.7%
Cc1ncc(-c2c(-c3ccccc3)ncn2CC(c2ccco2)N2CCCC2)[nH]1 (stereo unspecified)	-2.8%
CCC(=O)N(C1CCOCC1)C1CCN(S(=O)(=O)c2ccccc2F)CC1	7.4%
COC[C@H]1CCCN1C(=O)CC[C@@H]1CNC(=O)[C@@H]2C[C@H](NCc3ccc(N(C)C)cc3)CN12	0.6%
Cc1ccsc1-c1[nH]nc2ncc(-c3ccnn3C)nc12	-1.8%[70.6 µM]
COc1ccc(Cc2ncc3c(n2)CN(C(=O)c2ccc(Cl)c(C)c2)C3)cc1	2.4%
O=C(NCCc1ccccc1)C1CC(c2ccccc2)CN(C(=O)c2ccccc2F)C1 (stereo unspecified)	-0.3%
Cc1cc(Nc2ncncc2-c2nc(-c3ccccc3)no2)ccc1Cl	3.7%
CNC(=O)c1ccc2c(c1)n(Cc1ccc(OC)cc1)c(=O)c1ccnn12	11.0%
COC(=O)NC(C)C(=O)N1Cc2cnc(Cc3ccc(OC)cc3)nc2C1 (stereo unspecified)	2.3%
O=C(Nc1cccc(C(F)(F)F)c1)c1nc2c(o1)CCN(Cc1cnc[nH]1)CC2	-9.0%[70.6 µM]
CC(C)NC(=O)C[C@@H]1c2nc(NC(=O)c3c(F)cccc3F)sc2C[C@@H]2[C@](C)(CO)[C@H](O)CC[C@]21C	-6.0%
COc1ccc(C(=O)N2CCn3c(nnc3C3CCCNC3)C2)cc1 (stereo unspecified)	0.0%
COc1ccc(C(=O)N[C@@H]2CCC[C@@H]2C(=O)NCCCc2ccccc2)cc1	1.6%
COCc1noc([C@@H]2CC(F)(F)CN2C(=O)Cc2ccccc2F)n1	1.6%
O=C(N[C@H]1CCN2C(=O)c3cc(-c4cccc(C(F)(F)F)c4)ccc3NC(=O)[C@@H]2C1)c1ccncc1	-1.6%
CCc1ccc(CN2C(=O)C3(CCOCC3)CC2c2nnnn2CCOC)cc1 (stereo unspecified)	1.7%
CCNC(=O)NC[C@H]1O[C@H](Cc2cc(-c3ccccc3)on2)CC[C@@H]1O	-0.2%[70.6 µM]

Ordered by SMILES length (highest first): some entries from above
SMILES	hNpr1 antagonist
O=C(N[C@H]1CCN2C(=O)c3cc(-c4cccc(C(F)(F)F)c4)ccc3NC(=O)[C@@H]2C1)c1ccncc1	-1.6%
CCNC(=O)NC[C@H]1O[C@H](Cc2cc(-c3ccccc3)on2)CC[C@@H]1O	-0.2%[70.6 µM]
O=C(NCCc1ccccc1)C1CC(c2ccccc2)CN(C(=O)c2ccccc2F)C1 (stereo unspecified)	-0.3%
COCc1noc([C@@H]2CC(F)(F)CN2C(=O)Cc2ccccc2F)n1	1.6%
CCc1ccc(CN2C(=O)C3(CCOCC3)CC2c2nnnn2CCOC)cc1 (stereo unspecified)	1.7%
Cc1cc(Nc2ncncc2-c2nc(-c3ccccc3)no2)ccc1Cl	3.7%
COc1ccc(C(=O)N2CCn3c(nnc3C3CCCNC3)C2)cc1 (stereo unspecified)	0.0%

Continued:
SMILES	hNpr1 antagonist
Cc1cn(C[C@H](NC(=O)c2cccc(F)c2)C(=O)O)c(=O)[nH]c1=O	-2.0%[70.6 µM]
N#Cc1cccc(C(=O)NCc2nnc3ccc(-c4ccc(F)cc4)nn23)c1	17.0%
O=C1NC2(CCCN(Cc3ccccc3C(F)(F)F)C2)Oc2ccccc21 (stereo unspecified)	-7.4%
COCCNC(=O)[C@H]1C[C@H](Oc2ccccc2)CN1Cc1ccncc1	-10.1%
O=C(Nc1cccc(C(F)(F)F)c1)c1cnc2c(c1)N(C(=O)CCc1ccccc1)CCC2	-21.2%
O=C(CN1CCCc2nc(C3CC3)ncc2C1=O)NCCc1c[nH]c2ccccc12	-11.4%
CCOc1ccc(C2Cn3nnc(-c4nc(-c5ccccc5F)no4)c3CO2)cc1 (stereo unspecified)	-13.4%
Cn1cc(-c2cnc(Nc3ccc(F)c(Cl)c3)c3c2CCO3)cn1	-10.0%[70.6 µM]
CN(C)Cc1cc(-c2nccn2CC2(CO)CCCC2)ccc1O	1.1%
CC(C)CNC(=O)C1COC2(CCCCC2)N1C(=O)c1cccc([N+](=O)[O-])c1 (stereo unspecified)	2.2%
Cc1ccc(CNC(=O)c2noc(-c3ccc(F)cc3)n2)cc1	-10.8%
CC1(C)[C@H](Cc2cc(-c3ccccc3)on2)C[C@@H]1NCC1CC1	5.2%[70.6 µM]
Cc1cnc(C(=O)N2C[C@@H](COCC3CC3)[C@H](c3ccccn3)C2)cn1	2.9%
CN(Cc1ccccc1)Cc1cn([C@H]2CO[C@H]3[C@@H]2OC[C@@H]3NC(=O)c2ccc(N(C)C)cc2)nn1	-4.2%
COc1cccc(NCc2nnc(C(=O)N3CCC[C@@H]3c3cccc(F)c3)n2-c2ccccc2)c1	-0.8%
O=S(=O)(N[C@H]1CO[C@H]2[C@@H]1OC[C@@H]2n1cc(-c2ccccn2)nn1)c1cccs1	?
CC1(c2ccccc2)N(Cc2ccc(O)cc2)C(=O)OC12CCN(Cc1c[nH]c3ccccc13)CC2 (stereo unspecified)	?
O=C(NCCN1CCCC1)C1Cn2cccc2C(=O)N1Cc1ccccc1 (stereo unspecified)	-7.6%
CCN(CC)CCNC(=O)c1ccc2c(c1)n(Cc1cccc(F)c1)c(=O)c1ccnn12	0.3%
COc1ccc(S(=O)(=O)N2C[C@@H]3C[C@H](C2)c2ccc(NC(=O)c4ccncc4)c(=O)n2C3)cc1	-2.4%
O=C(c1cc(F)cc(F)c1)N1C[C@@H](CO)[C@H](c2ccccn2)C1	2.3%
CCN(CC)CCNCc1ccc(-c2ccccc2)o1	3.1%
COCCn1c(=O)[nH]c2cccnc21	-9.2%[70.6 µM]
CCc1ccc(C(=O)NC2CCN(c3ccccc3)C2=O)cc1 (stereo unspecified)	1.1%
CN(C)[C@@H]1CN(Cc2ccncc2F)CC[C@@H]1CNC(=O)C1CC1	5.7%
OC1(CN2CCCCC2)CCN(c2nc3ccccc3s2)C1 (stereo unspecified)	1.5%
Cc1ccc(C2Cn3nnc(C(=O)N4CCN(C(=O)c5ccccn5)CC4)c3CO2)cc1 (stereo unspecified)	4.1%
COCc1nc(C2CCCN(C(=O)Cc3cccc(F)c3)C2)no1 (stereo unspecified)	-14.4%
CCCC1(C(=O)O)CCCN(C(=O)c2cccnc2OCC)C1 (stereo unspecified)	-0.1%
O=C(NC1CC1)[C@@H]1C[C@H](Oc2ccccc2)CN1C(=O)c1ccccn1	3.7%
c1ccc(CCCN2CC[C@H](c3nc4ccccc4[nH]3)C2)cc1	-20.7%[70.6 µM]
COc1ccccc1N1CCN([C@@H]2[C@H](O)[C@H](CO)O[C@@H]2CNS(C)(=O)=O)CC1	10.9%
Cc1nc(CCC(=O)N(C)CC2CCN(CCc3cccc(F)c3)CC2)n[nH]1	4.5%
COc1ccc(-c2ccnc3nc(CCc4ccc(OC)c(OC)c4)nn23)cc1	-1.1%
O=C(NC1CCN(c2cc(-c3ccc(F)cc3)[nH]n2)C1)c1ccc(Br)o1 (stereo unspecified)	-21.5%
O=C(c1ccccn1)N1CCCC(n2cc(-c3nc(-c4ccccc4)no3)nn2)C1 (stereo unspecified)	-19.6%
Cc1ccc(OCCC2CCN(C(=O)Nc3cccc(C)c3)C2)cc1 (stereo unspecified)	-6.6%
COc1ccccc1-c1onc(C)c1C(=O)NCCc1cccc(Cl)c1	-0.1%
COCC(=O)NC1CCC12CCN(S(=O)(=O)c1c(C)noc1C)CC2 (stereo unspecified)	3.1%
Cc1cccnc1CN(C)c1cc(C2CC(O)C2)ncn1 (stereo unspecified)	-2.1%
C[C@@H]1C(=O)O[C@H]2[C@H]1CC[C@@]1(C)Cc3sc(NCc4ccccc4)nc3[C@@H](C)[C@H]21	?
O=C(NC1CCCC1)c1ccc(CN2C(=O)NC3(CCS(=O)(=O)CC3)C2=O)cc1	-2.2%
CCCCNC(=O)C1(c2ccc(NC(=O)C(C)C)cc2)CCCCC1	-2.6%
CCc1nc2c(c(-c3ccc(O)cc3)n1)CCN(Cc1ccncc1)CC2	6.5%
Cc1ccccc1S(=O)(=O)N1CCC(CCC(=O)N2CCc3ccccc3C2)CC1	-29.3%
CCCCCNc1ncnc2c1CN(c1ccccc1)C(=O)N(C)C2	2.1%[70.6 µM]
CC(C)CNC(=O)C1(CCO)CC12CCOCC2 (stereo unspecified)	-0.6%
COCC(=O)N[C@H]1[C@H](O)[C@H](O)C[C@@H]1c1ccc(OC)cc1	1.2%[70.6 µM]
COc1ccc(C(=O)N2CCc3ccc(C(=O)NC4CCCCC4)cc32)cc1	-10.2%
COc1cccc(CN2CC[C@H](c3nc4cc(Cl)ccc4o3)C2)c1	-1.5%[70.6 µM]
O=c1n(Cc2ccccc2Cl)nc2n1CCCCC2	1.4%
CCCn1nccc1C(=O)NCc1cccnc1Oc1ccc(C)nc1	-1.6%
O=C(Cc1ccc(F)cc1)NC1CCN(c2cc(-c3ccc(F)cc3)[nH]n2)CC1	-18.8%
CC(C)CCN1CCC(N2CCN(C(=O)c3cc(F)ccc3F)CC2)C1=O (stereo unspecified)	5.2%
O=C(c1cc(C2CC2)[nH]n1)N1C[C@@H](CO)[C@H](c2ccccn2)C1	2.8%
COc1ccc(C(=O)N2CCCN(c3cc(-c4ccc(F)cc4)[nH]n3)CC2)c(C)c1	5.62µM*
CCC(=O)N1CCc2oc(C)c(C(=O)NCCN(C)C)c2C1	3.4%
O=C1CC2(CCN(CC3CC3)CC2)Oc2ccccc2N1c1ccccc1	1.0%
CN1CCCCCCN(S(=O)(=O)c2ccc3c(c2)CCC3)[C@H]2CCC[C@H]2C1=O	-11.5%
CCC(CC)NC(=O)CC1CCCN(c2cnn(CC3CC3)c(=O)c2)C1 (stereo unspecified)	4.0%

(more compounds)
SMILES	hNpr1 antagonist
COC[C@@H]1CN(C(=O)c2c(C)noc2C)C[C@H]1c1ccncc1	-13.8%
COc1ccc(-c2noc(-c3nc(-c4cccnc4)no3)n2)cc1	-0.6%
CCN(CC)c1ccc(C(=O)N2CCCC(n3cc(-c4nc(C)no4)nn3)C2)cc1 (stereo unspecified)	-1.9%
CN1C[C@H](NCc2ccc(F)cc2)CCC[C@@H](C(=O)N(C)Cc2cccnc2)CC1=O	-5.9%[70.6 µM]
Cc1ccsc1[C@@H]1CCN(C(=O)c2ccc(-n3cnnn3)cc2)C[C@H]1O	1.5%
CCCOc1ccc(CN2C[C@@H](CO)[C@H](C(=O)N(C)C)C2)cc1OC	-2.6%
Cc1c(C(=O)N2CC[C@](C)(O)[C@@H](O)C2)[nH]c2c(F)cccc12	4.5%
COc1ccc(Cl)cc1NC(=O)C1CN(S(C)(=O)=O)CC12CCCCC2 (stereo unspecified)	-21.9%
Cc1nc(C)c(C(=O)N2CCOc3ccc(CN4CCCCC4)cc3C2)s1	2.3%
COc1ccc(CCNC(=O)[C@@H](C)C2CC[C@@]3(C)CC[C@H](NC(=O)c4ccncc4)[C@@H](C)[C@@H]3[C@H]2O)cc1OC (stereo partly specified)	-5.2%
COc1ccc(C(=O)N2[C@@H]3CC[C@H]2CC(NC(=O)c2ccncc2)C3)c(OC)c1 (stereo partly specified)	-3.1%
CCNc1cc(N2CCC(CCC(=O)NCCN3CCCCCC3)CC2)ncn1	0.8%
O=C(NCc1ccc(F)cc1)N1CCC(N2CC3CC(C2)[C@H]2CCCC(=O)N2C3)CC1 (stereo partly specified)	2.2%
COCc1ccc(C(=O)N2CC[C@@H](c3ccc4c(c3)OCO4)[C@H](O)C2)o1	-3.2%
COCCOC1CCN(C(=O)Nc2ccc(C(=O)OC)cc2)CC1	-0.4%
CCNC(=O)N(C1CC1)C1CCOC2(CCN(C(=O)Cc3cccc(OC)c3)CC2)C1 (stereo unspecified)	1.6%
CCNC(=O)C1CC(c2ccc(CC)cc2)CN(C(=O)c2ccoc2)C1 (stereo unspecified)	0.6%
O=C1NC2(CCN(Cc3cncs3)C2)OCc2ccccc21 (stereo unspecified)	6.5%[70.6 µM]
F[C@@H]1CN(Cc2nccs2)C[C@@H]1OCc1nc2ccncc2[nH]1	-12.9%[70.6 µM]
O=C(NC1CCN(c2cc(-c3ccccc3)[nH]n2)CC1)c1cccc(F)c1	-5.1%
COc1cccc(NC(=O)[C@@H]2C[C@@H](c3cccc(C(F)(F)F)c3)N(CC3CCOCC3)C2)c1	2.3%
O=C1Cc2c(-c3ccc(F)cc3F)n[nH]c2CN1CCc1ccncc1	-2.5%[70.6 µM]
O=C(NCCc1ccncc1)C1CN(C(=O)CC2CCCC2)CC12CCOCC2 (stereo unspecified)	5.4%
COc1ccc(-c2nc(C)nc3c2CCN(Cc2ccc(F)cc2)CC3)cc1	0.9%
O=C(Cc1c[nH]c(=O)[nH]c1=O)NCc1cccnc1Oc1ccccc1F	-0.3%
COc1ccc(CN(C)C(C)c2cccs2)cc1 (stereo unspecified)	-1.1%&0.5%[70.6 µM]
O=C(O)COCC(=O)N1C[C@@H]2C[C@H](C1)c1c(-c3ccc(OC(F)(F)F)cc3)ccc(=O)n1C2	-0.5%
CC(=O)N1C[C@@H]2CCCN3CCC[C@@H]([C@H]23)[C@H]1CCCC(=O)NCCCN1CCOCC1	2.2%
CSc1ccc(NC(=O)N2CCc3nc4cc(-c5ccccc5)[nH]n4c(=O)c3C2)cc1	-14.2%
CC1CCN([C@@H]2[C@H](O)[C@H](CO)O[C@@H]2CNC(=O)c2ccc(F)c(Cl)c2)CC1	3.7%

A portion of the library (hit frequency here may not be typical).
